ClpP mod: qHTS Assay for Activators of ClpP; Potency, µM (series often up to 57.5 µM), without a hit: at the top dose activity change, negative = active; AID 651965, 2013; 340,000 compounds, 1.9% hits; purified B. subtilis ClpP, FRET peptide cleavage, 20 min; active = well fitted falling curve with a large enough effect; inconclusive = small, poorly fitted or top-dose-only effect; inactive = no such curve, though single readings can be large or run the other way; note: potency is the fitted concentration of half-maximal effect; the source files actives as falling curves though it sought activators and does not explain the sign; nearly all actives have a fitted effect of over 65% in size; many hits overshoot -100%
Target sequence (P80244 whole entry, looked up): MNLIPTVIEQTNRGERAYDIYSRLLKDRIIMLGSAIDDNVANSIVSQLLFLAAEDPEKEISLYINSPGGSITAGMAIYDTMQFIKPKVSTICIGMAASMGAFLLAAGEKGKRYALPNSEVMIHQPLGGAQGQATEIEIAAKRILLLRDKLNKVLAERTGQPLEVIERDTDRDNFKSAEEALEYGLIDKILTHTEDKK
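Purified B. subtilis ClpP, 10 microg/mL final in Tris/HCl pH8 with KCl, BSA, glycerol and Tween-20, cleaved an Abz/nitrotyrosine-quenched decapeptide. Fluorescence (ex 320, em 430) was read at 0 and 20 min at room temperature. Delta was normalized to 5.8 microM ADEP and DMSO/no-enzyme controls.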
gsp antagonist: antagonists of gsp mutant (McCune-Albright syndrome). gsp-mutant cells, cAMP HTRF, 30 min; control for the full effect not named in the record. Potency, µM (titrated, usually from 76.9 µM), inactives show at the highest dose activity change, negative = inhibition, usual class: inhibitors. 340,000 compounds, 0.4% hits; active = falling curve of any shape with a large fitted effect; inconclusive = falling curve, mostly with a smaller effect; inactive = flat or rising curve; cell line not stated here;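 note: intracellular cAMP measured with PDE inhibitor Ro 20-1724 present during compound exposure; potency is the fitted concentration of half-maximal effect; % is set by controls: 0 for no effect and ±100 for the full control effect; nearly all actives have a fitted effect of over 65% in size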
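HTRF cAMP measurement after 30 min RT detection following 30 min, 37C compound treatment alongside […] (added as 300 uM solution) in G418-selected cells seeded at 2000/well and grown 16–24 h.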
TRPV1 potentiator: human TRPV1 potentiation; TRPV1-expressing cells, Fluo-8 calcium influx, capsaicin EC20 potentiation; host cell line not named in the record; control for the full effect not named in the record; potentiation, % at 8.33 µM; 320,000 compounds, 0.02% hits; AID 540277; active means potentiation above 80%; inconclusive means 30% to 80%; inactive means below 30%; note: 0% is about no effect
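Fluo-8 calcium influx in TRPV1-expressing cells, kinetic read (ex 480/em 520 nm). Compound added and read 3 min for agonist activity, followed by capsaicin at EC20 final and 2 min further read for enhancement.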
gsp agonist: gsp mutant agonism. Potency, µM (series often up to 76.9 µM), for the others: top-dose activation (cAMP increase), hits mostly activators. AID 624287. 340,000 compounds, 0.13% hits. gsp mutant cells, cAMP HTRF, 30 min; control for the full effect not named in the record; active = well fitted activation curve with a large enough effect; inconclusive = small, poorly fitted or top-dose-only effect, or another doubt; inactive = no such curve, though single readings can be large or run the other way; cell line not stated here;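 note: phosphodiesterase inhibitor Ro 20-1724 added with compounds to block cAMP breakdown; potency is the fitted concentration of half-maximal effect; nearly all actives have a fitted effect of over 60% in size; about a fifth of the inactives were tested at one dose only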
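Cells stably selected in G418 were plated at 2000/well, grown 16-24 hr, then given compounds in DMSO with the PDE inhibitor […] (300 uM solution added) for 30 min at 37C; cAMP was read by HTRF.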
Menin-MLL FL inh: inhibitors of human menin-MLL interaction, wild-type MLL peptide | Fluorescence polarization, fluorescein-MLL peptide displacement from menin | FP activity change, % at 61.4 µM | 290,000 tested, under 10 active | AID 1766; inconclusive = falling polarisation curve, or a change in total fluorescence; inactive = total fluorescence flat and polarisation flat or rising; no compound was filed as active; the % refers to the polarisation; negative = inhibition;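 note: % of control where 0% means no effect; inhibitors lower the polarisation; unlabelled MLL peptide was the positive control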
TRPML1 blocker: inhibitors of human TRPML1 channel | Q9GZU1 | TRPML1-inducible cells, Ca2+ dye fluorescence, FDSS; hits give low values; inhibition of EC80 agonist-evoked calcium signal | activity change, negative = inhibition, % (test concentration not listed) | 390,000 compounds, 0.02% hits | AID 624415; in the data active means activity change below about -50%; inconclusive means about -30% to -50%; inactive means above about -30%;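 note: stimulus is agonist 54-4 at its EC80 concentration; % is set by controls: 0 for no effect and ±100 for the full control effect; compound concentration not given in the record; the text of the record puts the active cut at -80%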
Target sequence (Q9GZU1 whole entry, looked up): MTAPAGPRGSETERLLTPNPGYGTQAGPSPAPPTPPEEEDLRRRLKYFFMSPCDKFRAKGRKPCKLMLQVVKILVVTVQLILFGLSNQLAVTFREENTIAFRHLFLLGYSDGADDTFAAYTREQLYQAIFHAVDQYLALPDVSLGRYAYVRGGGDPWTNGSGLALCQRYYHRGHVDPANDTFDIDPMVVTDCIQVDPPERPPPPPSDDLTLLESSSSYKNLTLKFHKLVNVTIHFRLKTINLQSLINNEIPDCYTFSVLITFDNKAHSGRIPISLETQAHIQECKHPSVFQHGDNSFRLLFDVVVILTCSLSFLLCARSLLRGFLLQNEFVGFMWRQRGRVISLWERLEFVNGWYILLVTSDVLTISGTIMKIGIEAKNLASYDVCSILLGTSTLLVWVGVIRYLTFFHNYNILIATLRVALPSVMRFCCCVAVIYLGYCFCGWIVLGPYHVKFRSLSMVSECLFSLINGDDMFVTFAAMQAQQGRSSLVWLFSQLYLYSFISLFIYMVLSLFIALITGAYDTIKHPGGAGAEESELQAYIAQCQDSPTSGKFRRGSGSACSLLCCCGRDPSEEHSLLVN
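TRPML1-DL cells, Tet-induced overnight (~16 h, 37 °C) at 1,500 cells/well, were loaded with Ca8 no-wash dye plus quencher for 45-90 min at room temperature. Compounds were pinned during FDSS kinetic reading; agonist 54-4 at EC80 (4 uM final) then added.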
Sfp inh: inhibitors of Bacillus subtilis Sfp phosphopantetheinyl transferase; Potency, µM, inactives show max response, negative = inhibition, usual class: inhibitors; Biochemical Sfp PPTase activity, qHTS; Q9F4F7; 310,000 compounds, 3.5% hits; active = well fitted inhibition curve with a large enough effect; inconclusive = small, poorly fitted or top-dose-only effect, or another doubt; inactive = no such curve, though single readings can be large or run the other way;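 note: the enzyme is Sfp with the accession as filed and its product quenches rhodamine fluorescence; potency is the fitted concentration of half-maximal effect; 0% = enzyme reaction without inhibitor and -100% = no enzyme wells; top concentration of the series not given in the record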
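Step 1, compound plus 15 nM Sfp-PPTase, 15 min, room temperature. Step 2, add rhodamine-CoA (5 uM) and BHQ-2-YbbR (12.5 uM). Step 3, read 525/598 nm fluorescence at 0 and 30 min.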
Numbers without * were called inactive; u = inconclusive; x = not tested or not shown; [ ] = dose if it differs, or a comment.

1: Cc1cccc(NC(=O)COC(=O)CN2C(=O)C3CCCCC3C2=O)c1C (configuration not stated)
2: O=C(COc1ccc(Cl)cc1)NCc1nnc(SCC(=O)Nc2ccc(F)cc2F)o1
3: O=S(=O)(Cc1ccccc1Cl)Nc1ccccn1
4: OCCN(Cc1ccccc1)CC1CC2C=CC1C2 (configuration not stated)
5: Cc1ccc2c(C(=O)CN3CCOCC3)c(C)[nH]c2c1

entry no.	1	2	3	4	5
ClpP mod	4.1%	1.9%	u	-1.0%	-1.1%
gsp antagonist	x	-29%	-2%	8%	11%
TRPV1 potentiator	x	22	5	-12	-7
gsp agonist	-3%	34%	-36%[inhibitor]	-44%[inhibitor]	13%
Menin-MLL FL inh	x	-2.0	1.7	1.3	0.7
TRPML1 blocker	-6	7	11	38	-3
Sfp inh	x	8%	15%	-3%	-4%

6: O=C(CCCOc1ccc(Cl)cc1Cl)N/N=C/c1cccc([N+](=O)[O-])c1
7: Cc1cccc(NC(=O)c2ccccc2Br)n1
8: CN(c1ccc(C(=O)NCc2ccc3c(c2)OCO3)cc1)S(=O)(=O)c1ccccc1
9: Cc1ccc(CNC(=O)CN2C(=O)NC(C)(c3ccc(Cl)cc3)C2=O)cc1 (configuration not stated)
10: COc1cc2c(cc1OC)CN(CC(=O)Nc1ccc3c(c1)OCO3)CC2

entry no.	6	7	8	9	10
ClpP mod	-0.1%	-1.6%	x	x	-0.2%
gsp antagonist	-17%	2%	4%	6%	10%
TRPV1 potentiator	-22	4	-6	7	-14
gsp agonist	17%	-48%[inhibitor]	-14%	11%	u
Menin-MLL FL inh	5.0	0.6	-0.1	1.2	-0.2
TRPML1 blocker	-2	-5	20	-13	25
Sfp inh	-8%	-8%	4%	13%	20%

11: O=C(NC1CCCCC1)c1ccc(-c2ccccc2[N+](=O)[O-])o1
12: Nc1c(C(=O)c2ccccc2O)cnn1-c1ccc(S(=O)(=O)N2CCOCC2)cc1[N+](=O)[O-]
13: COc1ccc(NC(=O)C2CCCN(S(=O)(=O)c3c(C)n[nH]c3C)C2)cc1 (configuration not stated)
14: CN(C(=O)CN1C(=O)c2cc(Cl)c(Cl)cc2C1=O)C1CCS(=O)(=O)C1 (configuration not stated)
15: O=C(Nc1cccnc1)c1cc(Cl)ccc1Cl

entry no.	11	12	13	14	15
ClpP mod	1.3%	x	-3.9%	2.7%	-1.5%
gsp antagonist	-16%	x	10%	-3%	-1%
TRPV1 potentiator	-10	13	0	2	8
gsp agonist	u	x	-20%	-4%	-6%
Menin-MLL FL inh	x	8.4	3.0	x	0.3
TRPML1 blocker	25	x	36	8	-9
Sfp inh	-7%	-2%	0%	x	16%

Three compounds from above, ordered by the number in gsp agonist, highest first:
| No. | SMILES | gsp agonist | Menin-MLL FL inh | TRPML1 blocker | Sfp inh |
| --- | --- | --- | --- | --- | --- |
| 14 | CN(C(=O)CN1C(=O)c2cc(Cl)c(Cl)cc2C1=O)C1CCS(=O)(=O)C1 (configuration not stated) | -4% | x | 8 | x |
| 15 | O=C(Nc1cccnc1)c1cc(Cl)ccc1Cl | -6% | 0.3 | -9 | 16% |
| 13 | COc1ccc(NC(=O)C2CCCN(S(=O)(=O)c3c(C)n[nH]c3C)C2)cc1 (configuration not stated) | -20% | 3.0 | 36 | 0% |

(continued)
16: CN1CCC(NC(=S)Nc2cccc([N+](=O)[O-])c2)CC1
17: CCOC(=O)c1c(NC(=O)C(C)N2CCN(S(=O)(=O)c3cccs3)CC2)sc2c1CCC(C)C2 (configuration not stated)
18: C=C1N(c2ccc(Cl)cc2)C(=O)OC1(C)C
19: O=C(Nc1cccc(-n2cnnn2)c1)C1CCCN(C(=O)Cc2cccc(Cl)c2)C1 (configuration not stated)
20: COc1cccc(OCC(=O)NNC(=O)c2ccc3ccccc3c2O)c1

entry no.	16	17	18	19	20
ClpP mod	-0.6%	-4.1%	-0.8%	-1.7%	4.2%
gsp antagonist	8%	-9%	3%	x	-3%
TRPV1 potentiator	-5	10	7	x	17
gsp agonist	-24%	-48%[inhibitor]	-1%	-20%	-1%
Menin-MLL FL inh	-1.0	-4.2	-2.1	x	3.1
TRPML1 blocker	1	-4	-4	8	2
Sfp inh	-4%	7%	1%	x	15%

21: CC(Sc1nc(N)cc(=O)[nH]1)C(=O)NC1CCCCC1 (configuration not stated)
22: CCc1cccc2c(C(=O)COC(=O)/C=C/c3ccccc3OC)c[nH]c12
23: C#CC[N+](C)(C)CCCCCCCCCCCC
24: COC(C[C@@H](O)C[C@@H](O)[C@@H](C)OCc1ccccc1)OC
25: COc1ccc(Cc2nc(C(=O)Nc3ccc(OC)cc3)cs2)cc1

entry no.	21	22	23	24	25
ClpP mod	8.2%	-12%	-3.0%	1.1%	0.1%
gsp antagonist	5%	-20%	13%	14%	-16%
TRPV1 potentiator	-2	15	-31	x	4
gsp agonist	12%	6%[15.4 µM]	0%	-7%	-1%
Menin-MLL FL inh	1.6	-3.6	1.2	x	2.3
TRPML1 blocker	-11	-10	-11	-14	-1
Sfp inh	6%	22%	-20%	x	-2%

26: Cc1nnc(SCC(=O)N2CCOCC2)n1C
27: CCC(CC)NC(=O)c1cccc(Oc2ccccc2)c1
28: COc1ccc(CCNC(=O)CC(C)S(=O)(=O)c2ccc3c(c2)NC(=O)CO3)cc1OC (configuration not stated)
29: N/C(=N\OC(=O)CCN1C(=O)c2ccccc2C1=O)c1ccccn1
30: Nc1ccc(N2CCN(c3ccccc3)CC2)c(F)c1

entry no.	26	27	28	29	30
ClpP mod	-0.3%	0.1%	-2.5%	0.7%	-3.0%
gsp antagonist	-7%	-19%	20%	-7%	10%
TRPV1 potentiator	22	-20	-10	10	21
gsp agonist	u	-2%[15.4 µM]	-1%	0%	0%[15.4 µM]
Menin-MLL FL inh	-0.7	1.6	-1.6	1.5	0.3
TRPML1 blocker	20	-12	-4	1	-14
Sfp inh	14%	-6%	15%	17%	-7%

31: Cc1cc(Br)ccc1NC(=O)CCN1C(=O)c2ccncc2C1=O
32: CC(=O)Nc1ccc(NC(=O)C2CC(=O)N(Cc3ccccc3)C2)cc1 (configuration not stated)
33: CCN(CC(=O)NCc1ccc(Cl)cc1)C(=O)/C=C/c1ccc(Cl)c([N+](=O)[O-])c1
34: CCOc1c(Br)cc(C(=O)OCC(=O)N2CCc3ccccc3C2)cc1OC
35: CCOC(=O)C1=C(c2ccccc2)NC(=S)NC1c1cccc([N+](=O)[O-])c1 (configuration not stated)

entry no.	31	32	33	34	35
ClpP mod	0.5%	x	-13%	-3.7%	0.8%
gsp antagonist	3%	7%	-19%	-23%	-5%
TRPV1 potentiator	1	2	7	-10	-1
gsp agonist	4%	0%	-23%	-5%	-2%
Menin-MLL FL inh	-4.5	-1.7	x	x	0.7
TRPML1 blocker	8	-2	-13	-6	2
Sfp inh	17%	16%	79µM*	x	26%

36: COc1ccc(CNC(=O)COC(=O)CCS(=O)(=O)c2ccc(C)cc2)cc1OC
37: O=C(CSc1nc2ccccc2n1CCc1ccccc1)c1ccc(O)c(O)c1
38: N#Cc1c(N2CCOCC2)nc(N)c2c(N)nc3c(c12)CC(CCl)O3 (configuration not stated)
39: CCN(CC)S(=O)(=O)c1ccc2c(c1)nc(SC(C)C(N)=O)n2-c1ccc(OC)cc1 (configuration not stated)
40: O=[N+]([O-])c1cccc2ccc(N3CCOCC3)nc12

entry no.	36	37	38	39	40
ClpP mod	42%	-10%	x	-1.1%	x
gsp antagonist	-3%	-5%	-3%	-10%	-1%
TRPV1 potentiator	19	-1	-1	-11	27
gsp agonist	-40%[inhibitor]	-12%[15.4 µM]	2%[15.4 µM]	u	4%
Menin-MLL FL inh	x	-1.1	7.1	4.0	2.9
TRPML1 blocker	5	4	-6	10	-1
Sfp inh	x	50µM*	17%	-8%	5%

41: Cc1cc(C)cc(C(=O)NCC(=O)OCC(=O)N2CCN(S(=O)(=O)c3ccc4ccccc4c3)CC2)c1
42: COc1ccccc1CCNC(=O)C(=O)NCCC1CCCCN1S(=O)(=O)c1ccccc1 (configuration not stated)
43: O=C(NCCC1=CCCCC1)NC1CCCCC1
44: O=C(CCc1ccccc1)Nc1ccc(NC(=O)c2ccco2)nc1
45: Cc1ccc(S(=O)(=O)NC(=O)c2cc(C)n(-c3cc(S(=O)(=O)N4CCOCC4)ccc3N3CCCC3)c2C)cc1

entry no.	41	42	43	44	45
ClpP mod	-8.4%	x	-1.3%	-2.4%	-3.7%
gsp antagonist	13%	-21%	11%	12%	u
TRPV1 potentiator	-3	2	-14	18	5
gsp agonist	33%	-9%[15.4 µM]	-24%	-2%	-45%[inhibitor]
Menin-MLL FL inh	4.8	x	-1.1	-3.6	4.3
TRPML1 blocker	6	-2	2	6	11
Sfp inh	-7%	x	-6%	-7%	u

46: Cc1nc(NCc2ccco2)c2cn[nH]c2n1
47: O=c1c2ccccc2c(-c2n[nH]c(=S)o2)nn1Cc1ccccc1
48: Cc1cccc(C)c1NC(=O)CC(C)c1ccccc1 (configuration not stated)
49: Cc1ccc(CNC(=O)CN2C(=O)NC3(CCCC3)C2=O)cc1
50: Nc1cc(Oc2ccc(Cl)cc2Cl)nc(N)n1
51: CCCCCn1c(SCC(=O)OCC)nc2cc(C(=O)N3CCC(C(N)=O)CC3)ccc2c1=O
52: O=C(Cc1ccccc1)NCCS(=O)c1ccc(Cl)cc1 (configuration not stated)
53: Cc1nc(C(=O)NCc2ccccc2)sc1C1(C)CC(c2cccc([N+](=O)[O-])c2)=NO1 (configuration not stated)

entry no.	46	47	48	49	50	51	52	53
ClpP mod	x	-8.5%	0.6%	x	x	-5.0%	0.5%	0.9%
gsp antagonist	-4%	u	3%	0%	-14%	-10%	8%	-8%
TRPV1 potentiator	x	14	0	x	8	-9	-4	4
gsp agonist	2%	-3%	4%[15.4 µM]	-1%	3%	6%	u	x
Menin-MLL FL inh	x	-0.4	2.4	x	3.1	1.0	3.0	1.1
TRPML1 blocker	-3	4	1	2	-3	-4	0	1
Sfp inh	x	79µM*	7%	x	9%	9%	14%	14%

High-throughput results deposited in PubChem BioAssay by National Center for Advancing Translational Sciences (NCATS).
